Compound activity (PubChem)
Bead autofluor – counter-screen for toxin protease inhibitors: compound fluorescence. compound autofluorescence counterscreen, microsphere flow cytometry; active compounds read high. fluorescence intensity (concentration not given with the values). actives 3.1% (n = 360,000). AID 624483;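 active = at least 3 SD above the mean of all compounds, about 16000 in these data; inconclusive = too few beads counted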;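 note: 100 nL of 1 mM stock went into each well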
PrP UTR inh – inhibition of PrP 5' UTR reporter expression. cell-based PrP 5' UTR mRNA reporter, plate reader. inhibition, % (test concentration not listed). actives 0.35% (n = 340,000). AID 488862, 2010;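 active = every replicate at 50% or more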;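 note: 0 = median of the neutral control wells; tested in H4 reporter cells; numbers are from one replicate; inactives centre near -14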
ugtP null kill – growth inhibition of ugtP-null S. aureus, primary screen, RN4220 ugtP deletion, OD600. 16 h; some inactives read as strong as hits. AID 1259309, 2017. actives 0.54% (n = 330,000). growth inhibition, % (no concentration beside the values);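 active = z-score under -3 and OD600 up to 0.15 on both plates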;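 note: plate controls were untreated wells for no effect and antibiotic for full effect; wells of about 80 µL received 100 nL stock; the first replicate is given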
Sa RN4220 lethal – growth inhibition of S. aureus RN4220, primary screen, OD600. 16 h. inhibition, % (no concentration beside the values). actives 0.33% (n = 330,000);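 active = z-score of -3 or lower and OD600 up to 0.18 on both plates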;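 note: plate controls were untreated cells for no effect and reference antibiotic for full effect; stock transfer was 100 nL into about 80 µL; one replicate is shown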
Mtb hypoxia inh – PubChem AID 1159583 | M. tuberculosis hypoxia-regulated fluorescent reporter, fluorescence | fluorescence inhibition, % (concentration not given with the values) | actives 0.1% (n = 300,000);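 active = 35 to 45% if threefold the growth effect, above 45% if 1.5-fold the growth effect; inactive = the rest, general growth blockers included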;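 note: wells of about 50 µL received 100 nL stock; 0% = vehicle wells and 100% = reference inhibitor wells; whole bacteria with a GFP reporter of the hypoxia response; strong numbers were not always called active; many hits fall short of the cut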
BJeLR lethal – MLPCN primary cell-based screen for lethality selective to Ras in HRASV12 cells | actives 0.17% (n = 300,000) | inhibition, % (test concentration not listed) | BJeLR (HRASV12) viability, CellTiter-Glo ATP luminescence, 48 h; reference of the scale not given here;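 active = replicate mean above 50%; inconclusive = above 50% but judged a plate artefact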;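 note: 50 nL library stock added to about 25 µL; numbers are from one replicate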
Mtb hypoxia inh growth – recorded beside Mtb hypoxia inh, whose call it bears; growth inhibition, %; measured here: M. tuberculosis growth (absorbance);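 0% = vehicle and 100% = reference antibiotic; read after six days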
Starred values were filed as active, the others as inactive; ? = inconclusive; · = not tested or not shown. Rows are unselected (roughly 4% active in at least one column).

canonical_smiles	BJeLR lethal	PrP UTR inh	ugtP null kill	Bead autofluor	Mtb hypoxia inh growth	Mtb hypoxia inh	Sa RN4220 lethal
CCO[C@@H]1OC(C(=O)N2CCN(Cc3ccc4c(c3)OCO4)CC2)=C[C@H](C2CC2)[C@H]1CCCO	11	-24	·	3937	·	·	·
CCOc1ccc2nc(NCCNC(=S)NCCCN(C)C)c(C#N)cc2c1	3	18	4	3686	17	5	2.5
S=c1[nH]nc(COc2ccccc2)n1C1CCCCC1	1	3	5	4496	·	·	1.8
COC(=O)[C@]1(Cc2ccccc2)N[C@H](CN(C)C(=O)C2CCCCC2)[C@@H]2C(=O)N(C)C(=O)[C@@H]21	·	-20	-3	3661	11	2	0.2
Cc1nc2nc(CNC(=O)OC(C)(C)C)nn2c(C)c1CCC(=O)Nc1ccc2c(c1)OCO2	-15	-34	1	5376	-6	-3	-1.1
O=C(CSc1ccc(Cl)cc1)Nc1ccc(N2CCN(C(=O)c3ccc(Cl)cc3)CC2)cc1	1	-7	-8	10730	7	-1	4.8
COc1ccc(S(=O)(=O)Nc2c(C(=O)O)[nH]c3ccccc23)cc1OC	-5	-22	3	2126	9	19	3.8
O=C(c1ccccc1)c1ccccc1C(=O)N1CCN(C(=O)c2ccccc2)CC1	3	-4	7	4491	5	-2	5.8
O=C(NCCc1ccccc1)c1c(O)c2cccc3c2n(c1=O)CC3	4	-24	-1	2205	4	7	15
Cc1ccc(-c2nnc(SCC(=O)Nc3ccc(N4CCOCC4)cc3)o2)cc1	-18	-15	-2	3452	5	10	6.7
CCOC(=O)c1ccc(N2Cc3ccccc3C2=N)cc1	-12	-30	5	5325	·	·	-0.4
COCC1CCCCN1C(=O)C1CCN(c2nc(-c3ccccc3)nc3c2CCC3)CC1 (configuration not stated)	-1	-39	6	5507	14	7	-2.2
O=C(NNC(=S)NC(=O)c1cccs1)c1ccc(NC(=O)c2ccccc2)cc1	-13	11	14	2068	1	7	30
CN1C(=O)c2ccccc2N(C)C1c1ccccc1Cl (configuration not stated)	27	-16	2	4199	0	4	4.6
Cc1ccc(S(=O)(=O)Nc2ccccc2N2CCOCC2)cc1	6	-21	1	5720	8	8	6.2
COC(=O)c1ccc(Sc2nnnn2-c2ccccc2)c([N+](=O)[O-])c1	-15	7	6	3699	·	·	12
CC(C)(C)C(=O)NC1CCN(CC(=O)Nc2ccc3c(c2)OCO3)CC1	-2	-27	0	6101	-7	2	-1.5
O=C(OC1CCOC1=O)c1ccc(-c2nc3ccccc3s2)s1 (configuration not stated)	11	-15	8	3571	·	·	5.8
NNC(=O)c1ccc(COCC(F)(F)C(F)F)cc1	-1	2	4	4019	3	4	3.8
COc1ccc2[nH]c(=O)c(CN(Cc3cccnc3)Cc3nnnn3CC3CCCO3)cc2c1 (configuration not stated)	5	-19	-1	4241	1	11	0.2
CCC(C)NC(=O)C1c2ccccc2C(=O)N1Cc1ccc(OC)cc1OC (configuration not stated)	-8	3	-1	3214	0	1	-5.1
CCCCc1cc(=O)oc2cc(OCC(=O)N3C[C@H]4C[C@@H](C3)c3cccc(=O)n3C4)ccc12	-5	-26	-5	4431	·	·	-0.9
COc1nc(Nc2ccc(C(C)=O)cc2)nc(OC)n1	0	-29	-5	6052	5	8	11
Cc1[nH]c2c(Cl)cccc2c(=O)c1CN1CCCCCC1	-5	-20	5	5063	3	3	1.1
O=C(COC(=O)c1cc(S(=O)(=O)N2CCOCC2)ccc1O)NCc1ccc2c(c1)OCO2	·	-3	2	6029	-4	-6	0.6
Brc1ccc(-c2cnc3n2CCCC3)cc1	5	5	-4	3810	·	·	3.2
COCCn1c(=N)c(S(=O)(=O)c2ccc(Br)cc2)cc2c(=O)n3ccccc3nc21	-4	4	3	5478	-10	-9	2.2
COCCCC1CCN(C(=O)C2CCC(=O)N(C3CCCC3)C2)CC1 (configuration not stated)	-5	-4	7	?	-2	9	3.0
CS(=O)(=O)c1nc(S(=O)(=O)c2ccc(Cl)cc2)c(NCCN2CCOCC2)s1	10	-18	3	4682	1	-5	3.2
CCc1cccc(CC)c1NC(=O)CN1CC(C)SC1=NC1CCCCC1 (configuration not stated)	-2	2	3	·	·	·	3.1
O=C1NC(=O)C(=Cc2cn(CCOc3ccc4c(c3)OCO4)c3ccccc23)C(=O)N1	11	10	3	4659	·	·	-4.9
COc1ccc(/C=N/NC(=O)c2nc(-c3ccccc3)n(-c3ccccc3)n2)c(O)c1	24	26	·	1978	·	·	·
CCOC(=O)NC(=S)Nc1ccc(C(C)(C)C)cc1	3	-75	·	?	·	·	·
COCCCNC(=O)Cn1cc2c(n1)CCCCC2	-4	7	2	5880	·	·	0.9
CCCCNC(=O)c1ccc(C)c(NC(=O)C2=C(C)OCCS2)c1	-6	-21	-3	3858	4	-10	2.7
COc1cc(CNCCN2CCOCC2)ccc1OCc1cccc(Cl)c1	18	-24	-2	2350	9	13	-11
Oc1c(Cl)cc(Cl)cc1C1Nc2ccccc2-n2cccc21 (configuration not stated)	3	-25	2	5804	3	-14	-2.9
CCC(=O)N1CCc2cc(S(=O)(=O)N3CCN(c4ccccn4)CC3)ccc21	8	-2	8	2360	·	·	-0.6
S=c1nc(-c2ccccc2)n(Cc2cccnc2)c2c1CCCC2	-2	·	6	·	0	9	4.2
O=C(Nc1ccccc1)c1ccc(=O)[nH]n1	-12	·	-3	3190	-2	-1	1.5
Cc1cc(C)c2c(c1)N[C@H](c1cccs1)[C@@H]1CCO[C@H]21	-7	-53	14	6574	13	11	7.7
COc1cccc2c1c(NC(=O)Nc1ccc(F)cc1F)nn2C	2	-33	1	·	7	5	2.0
Cc1ccc(NC(=O)C(CC(=O)O)C2CCCO2)c(C)c1 (configuration not stated)	0	-14	13	3031	-3	8	0.0
CSCCC(NC(=O)c1ccco1)C(=O)N1CC=C(c2ccccc2)CC1 (configuration not stated)	3	-4	7	6117	1	10	1.6
CCOC(=O)C1CCCN(S(=O)(=O)c2cc(Br)cc3c2N(C(=O)C2CC2)CC3)C1 (configuration not stated)	-9	-13	-2	3850	7	6	4.5
COc1ccc(C(=O)N/C(=C/c2cccs2)C(=O)NN)cc1OC	4	5	-5	·	10	0	1.0
CC(C)C1Nc2ccc(C(=O)NCc3ccco3)cc2NC1=O (configuration not stated)	-11	-14	6	6061	14	10	-0.8
CCOc1ccc(NC(=O)CCC(=O)N2CCSc3ccccc32)cc1	-3	-13	13	5824	·	·	1.7

In the list so far, two contain a COOH group.
canonical_smiles	BJeLR lethal	PrP UTR inh	ugtP null kill	Bead autofluor	Mtb hypoxia inh growth	Mtb hypoxia inh	Sa RN4220 lethal
COc1ccc(S(=O)(=O)Nc2c(C(=O)O)[nH]c3ccccc23)cc1OC	-5	-22	3	2126	9	19	3.8
Cc1ccc(NC(=O)C(CC(=O)O)C2CCCO2)c(C)c1 (configuration not stated)	0	-14	13	3031	-3	8	0.0

Following part.
canonical_smiles	BJeLR lethal	PrP UTR inh	ugtP null kill	Bead autofluor	Mtb hypoxia inh growth	Mtb hypoxia inh	Sa RN4220 lethal
O=C(NC1CCS(=O)(=O)C1)c1sc2ccccc2c1Cl (configuration not stated)	-4	-5	4	4267	7	0	5.4
COc1ccc(C(CC(=O)N2CCN(C)CC2)NC(=O)C(F)(F)F)cc1 (configuration not stated)	-3	-25	1	3805	10	-9	1.9
COc1ccc(N2CCN(C(=O)CCN3C(=O)c4ccccc4S3(=O)=O)CC2)cc1	5	-13	3	2681	·	·	1.7
CN(C)C(=S)NC(=O)c1cccc(Cl)c1	28	-21	2	4235	0	13	3.0
CN(CC(=O)Nc1ccccc1Cl)CC(=O)c1c(N)n(Cc2ccccc2)c(=O)n(C)c1=O	·	·	2	·	7	11	-0.5
O=C(CSc1ncccn1)NN=Cc1ccccc1[N+](=O)[O-]	·	·	8	·	13	3	4.4
O=c1c(/C=N/N2CCOCC2)c(C(F)(F)F)[nH]n1-c1ccccc1	-4	-17	·	2174	·	·	·
COc1cc2oc3cc(C)oc(=O)c3c2cc1OC	-8	-8	1	4373	12	10	6.1
Cc1cccc2cc(CN(CC3CCCO3)C(=O)c3ccncc3)c(=O)[nH]c12 (configuration not stated)	8	-33	11	6045	8	10	1.5
COc1cc2c(c(O)c1OC)C(=O)C(OC)CCC2 (configuration not stated)	-1	-9	10	3682	·	·	2.7
O=C(NC1CCCCCC1)C(=S)N1CCCC1	-18	-13	3	4445	7	5	7.0
COc1c(F)cccc1C1=CC(=O)CC(c2ccc3c(c2)OCO3)C1 (configuration not stated)	·	·	6	·	7	23	1.8
Cc1c(C(=O)NCC2CCCO2)sc2nc(-c3ccccc3)cn12 (configuration not stated)	-5	-26	-13	5270	13	17	-9.9
C=C1CCN(C(CC(C)C)C(=O)NCc2ccc(OC)cc2)S(=O)(=O)c2ccccc21 (configuration not stated)	·	·	6	·	10	20	14
COCCNC(=O)CCc1nnc(C2(c3ccc(Cl)cc3)CCC2)o1	0	-10	14	2471	11	6	-1.1
CCCCc1c(O)nc2n(c1=O)CCS2	-1	1	2	22113*	11	-1	3.4
O=C(N1CCOCC1)N1CCN(S(=O)(=O)c2ccc(Cl)cc2)C1	1	23	8	3514	10	2	4.9
O=C1OC(=O)c2c(Br)c(Br)c(Br)c(Br)c21	·	-13	4	5085	6	8	2.8
CCOC(=O)C1CCCN(c2c(NCCN(C)Cc3ccccc3)c(=O)c2=O)C1 (configuration not stated)	1	-1	13	3949	8	9	1.3
CCCCCn1c(=O)c2ccccc2n2c(=S)[nH]nc12	-7	-1	11	3967	6	11	7.5
CCOC(=O)c1cc(-c2csc(COc3ccc(Cl)cc3)n2)on1	10	-21	2	3926	·	·	2.5
COCCCNC(=O)c1cc2c(=O)n3cccc(C)c3nc2n(C(C)C)c1=N	-1	-12	0	4270	·	·	1.8
c1csc(-c2nc3ccccc3s2)c1	-9	-84	3	4627	-10	0	9.6
O=C(CN1CCCC1)Nc1ccc(F)c(Cl)c1	20	1	7	3635	4	18	3.4
Cc1ccccc1OCc1nc2ccccc2c(=O)n1N=Cc1cccc([N+](=O)[O-])c1	·	·	1	·	8	6	7.6
CC(C)CC(=O)Nc1nnc(SCC(=O)Nc2ccc(F)cc2)s1	9	-36	7	4113	13	7	2.6
CCOC(=O)N1CCc2c(sc3c2C(=O)NC(c2ccccc2)N3)C1 (configuration not stated)	25	-29	-6	4387	·	·	0.0
Cc1ccc(Cn2c(C(C)Nc3nc(-c4ccc(C)cc4)cs3)nc3cc(Cl)c(Cl)cc32)cc1 (configuration not stated)	4	-6	·	4073	·	·	·
O=C(C=CNNC(=O)c1ccccc1)c1ccc(Br)cc1	·	·	7	·	7	10	0.1
CC(OC(=O)C1CCN(c2ccc(C(F)(F)F)cn2)CC1)C(=O)c1ccccc1 (configuration not stated)	0	9	4	?	-6	-7	-4.0
N#C/C(=C\c1ccc(Cl)cc1)c1n[nH]c(Cn2cncn2)n1	8	-16	·	2373	·	·	·
CCOC(=O)c1ccc(NC(=O)CSc2nc3cccnc3n2C)cc1	4	-9	8	4147	·	·	-8.4
Cc1cc(=O)[nH]c(SCC(=O)Nc2c(C)n(C)n(-c3ccccc3)c2=O)n1	·	-22	2	3991	3	-2	0.8
COc1ccc(OCC(=O)OCC(=O)Nc2cc(S(=O)(=O)N3CCOCC3)ccc2Cl)cc1	·	-23	2	3640	8	6	2.8
CCOc1ccc(C(C)=O)cc1CSc1nnc(-c2ccoc2C)n1N	3	-10	3	4043	12	4	6.8
CN1CCN(C(=S)Nc2ccc(Oc3ccccc3)cc2)CC1	-20	-15	17	2588	5	14	1.8
CNC(=O)c1cc(C(=O)c2c(Cl)cccc2Cl)c[nH]1	8	-7	7	3265	4	-5	3.0
CC(C)=CC(=O)N1CCCC(N2CCN(c3ccc(F)cc3)CC2)C1 (configuration not stated)	-6	-5	4	3447	-1	2	2.9
